# D2 agonist: Beta-Arrestin HTS for Positive Allosteric Modulators of the Human D2 Dopamine Receptor: Agonists. activation, % (test concentration not listed). AID 624465, 2012. actives 0.084% (n = 360,000). DiscoveRx PathHunter D2 beta-arrestin, luminescence, 90 min; 100% = 57 uM dopamine signal. D(2) dopamine receptor (Homo sapiens), P14416; in the data active = activation above about 40%; inconclusive = about 15% to 40%; inactive = below about 15%; also: compound concentration not given in the record; the text of the record calls up to 30% inactive
#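 Agonist mode: compounds alone added to overnight-plated D2 PathHunter cells for 90 min at 37 C, with 57 uM final dopamine (EC100) defining full response. Beta-arrestin recruitment detected by chemiluminescent reagent, read after 1 h at ambient temperature.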
# CtBP-E1A inh: qHTS Assay for Inhibitors of the CtBP/E1A Interaction; CtBP / adenovirus E1A interaction (AlphaScreen); AlphaScreen GST-E1A/His-CtBP binding, 1536-well; active compounds read low; control for the full effect not named in the record; activity change, % (concentration not given with the values); actives 0.49% (n = 340,000); AID 651724, 2012; in the data active means activity change below about -65%; inconclusive means about -30% to -65%; inactive means above about -30%; also: % is scaled to controls: 0 for no effect and ±100 for the full control effect
#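 Homogeneous bead-based format: GST-tagged E1A captured on glutathione donor beads, His-tagged CtBP on nickel acceptor beads; compounds precede bead addition by 2 h at 37 °C.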
# PINK1 modulator: A Quantitative High throughput Screen to Identify Chemical Modulators of PINK1 Expression | Potency, µM (series often up to 76.6 µM), for inactives: top-dose activation (PINK1 increase), actives largely listed as activators | PINK1 immunofluorescence, high-content cytometry, 24 h | actives 0.2% (n = 410,000) | AID 624263, 2012; active = well fitted activation curve with a large enough effect; inconclusive = small, poorly fitted or top-dose-only effect; inactive = flat fitted curve, though single readings scatter; cell line not stated here;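 also: potency is read from the fitted curve at half-maximal effect; % of control where 0% means no effect; nearly all actives have a fitted effect of over 65% in size; a mitochondrial uncoupler was the plate control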
#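 Cells are seeded, rested 12 hours, then given compound at five concentrations or DMSO for 24 hours. After fixation, blocking and antibody staining, PINK1 amount and mitochondrial localization are scored; CCCP serves as control.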
# D2 potentiator: Beta-Arrestin HTS for Positive Allosteric Modulators of the Human D2 Dopamine Receptor: Potentiators. D(2) dopamine receptor (Homo sapiens), P14416. DiscoveRx D2 beta-arrestin cells, luminescence, 90 min; 100% = 57 uM dopamine signal. actives 0.23% (n = 360,000). potentiation, % (no concentration beside the values); active = potentiation of 50% or more; inconclusive = 30% to 50%; inactive = 30% or less;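 also: compound concentration not given in the record; tested on top of an EC20 dose of dopamine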
#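 D2 cells co-treated with compound plus 50 nM dopamine (EC20) for 90 min at 37 deg C to detect potentiation. Beta-arrestin recruitment was read as enzyme-fragment luminescence after 1 h at ambient temperature. Full response was set by 57 uM dopamine.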
# Six1-Eya2 inh: qHTS Assay for Inhibitors of the Six1/Eya2 Interaction. actives 0.56% (n = 360,000). AlphaScreen GST-Six1/His-Eya2 binding, biochemical; active compounds read low; control for the full effect not named in the record. activity change, % (test concentration not listed). Homeobox protein SIX1 (Homo sapiens) + Protein phosphatase EYA2 (Homo sapiens), …; in the data active = activity change below about -65%; inconclusive = about -30% to -65%; inactive = above about -30%; also: % is scaled to controls: 0 for no effect and ±100 for the full control effect
# Target sequence (O00167 whole entry, looked up): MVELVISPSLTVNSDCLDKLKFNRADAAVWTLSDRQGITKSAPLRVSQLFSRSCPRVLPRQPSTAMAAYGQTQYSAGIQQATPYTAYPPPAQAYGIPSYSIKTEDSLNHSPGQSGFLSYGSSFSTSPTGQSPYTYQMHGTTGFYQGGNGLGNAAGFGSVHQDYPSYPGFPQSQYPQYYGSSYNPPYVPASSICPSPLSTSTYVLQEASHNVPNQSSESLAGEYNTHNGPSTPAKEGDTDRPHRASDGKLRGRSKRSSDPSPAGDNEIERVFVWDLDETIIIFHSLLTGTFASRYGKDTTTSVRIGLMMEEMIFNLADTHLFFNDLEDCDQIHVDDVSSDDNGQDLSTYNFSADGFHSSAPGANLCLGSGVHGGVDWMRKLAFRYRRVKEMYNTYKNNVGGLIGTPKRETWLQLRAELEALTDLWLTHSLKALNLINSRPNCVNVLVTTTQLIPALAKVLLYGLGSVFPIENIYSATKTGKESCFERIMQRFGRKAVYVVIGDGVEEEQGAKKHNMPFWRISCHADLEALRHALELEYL
# Target sequence (Q15475 whole entry, looked up): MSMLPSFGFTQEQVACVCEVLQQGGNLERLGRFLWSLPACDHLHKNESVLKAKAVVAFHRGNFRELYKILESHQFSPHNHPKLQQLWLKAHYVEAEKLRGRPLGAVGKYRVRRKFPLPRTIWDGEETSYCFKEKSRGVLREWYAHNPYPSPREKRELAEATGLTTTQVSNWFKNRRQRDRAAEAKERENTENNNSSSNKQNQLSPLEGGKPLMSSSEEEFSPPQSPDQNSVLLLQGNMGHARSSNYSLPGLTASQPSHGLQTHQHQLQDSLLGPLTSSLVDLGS
#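 AlphaScreen with GST-Six1 and His-Eya2 (5X mix: 250 nM and 500 nM), glutathione donor and nickel acceptor beads; buffer 50 mM Tris pH 8.0, 300 mM NaCl, 1 mM TCEP; 1 h at 37 C in the dark.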
# TRPML1 ag: qHTS for Agonists of the Human Mucolipin Transient Receptor Potential 1 (TRPML1) | TRPML1-expressing cells, Ca2+ dye fluorescence, FDSS; host cell line not named in the record; reference of the full effect not given here | activation, % (test concentration not listed) | actives 0.12% (n = 410,000) | AID 624414, 2012; in the data active = activation above about 50%; inconclusive = about 30% to 50%; inactive = below about 30%; also: 0% is about no effect; the text of the record puts the active cut at 80%
#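 Agonist activity was taken from a 110 s kinetic Ca2+ dye read on the FDSS after pinning compounds onto TRPML1-DL cells. The cells were seeded at 1,500/well with Tet inducer, incubated about 16 h, then dye-loaded at room temperature.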
# Active calls of the source: *; ? = inconclusive; / = not tested or not shown; & = joins results of further samples; ! = a repeat was not active; [ ] = remark or other dose.
# The line under a structure holds: D2 agonist	CtBP-E1A inh	PINK1 modulator	D2 potentiator	Six1-Eya2 inh	TRPML1 ag
1	OC(COCC1COc2ccccc2O1)CN1CCN(c2ccccn2)CC1 (stereo not given)
  45*!	6&13	0.3%&-0.4%	25&14	-3&-1	-0.5&-0.6
2	NC(=O)C1CCN(c2ccc(C(F)(F)F)cc2[N+](=O)[O-])CC1
  -1.1	1	-3.8%[38.3 µM]	0	0	-0.2
3	COc1cccc(C(=O)Nc2ccc(-c3nnc(-c4ccco4)o3)cc2)c1
  1.8	-9	4.8%	?	-20	0.2
4	COC(=O)Cc1c(O)ccn(Cc2ccccc2OC)c1=O
  -3.7	1	1.4%	-4	-1	0.1
5	CN=c1c([N+](=O)[O-])nn(-c2ccc3c(c2)OCCO3)n1O
  42*	-6	0.7%	25	4	/
6	O=S1(=O)CC(O)C(O)CS1 (stereo not given)
  /	5	1.7%	/	0	-0.2
7	COc1ccc(NC(=O)c2ccc3ccccc3c2OC)cc1
  1.1	12	4.6%	-1	-2	2.8
8	CC(C)CCN(C(=O)c1cc(=O)[nH]c2ccccc12)c1c(N)n(Cc2ccccc2)c(=O)[nH]c1=O
  -4.1	/	0.0%	-5	13	0.3
9	Cc1nnc2ccc(-c3cccc(NS(=O)(=O)c4ccccc4[N+](=O)[O-])c3)nn12
  0.9	6	0.0%	-26	-17	1.1
10	Cc1cc(C(F)F)n2ncc(C(=O)N3CCc4ccccc4C3)c2n1
  -1.5	4	-1.1%	-5	14	-0.9
11	Cc1ccc(C(=O)Nc2cccnc2Cl)cc1Cl
  0.9	9	0.4%	-7	3	0.7
12	O=C(c1cccc2ccccc12)N1CCN=C1SCc1ccc([N+](=O)[O-])cc1
  -1.9	9	-0.2%	-6	15	-0.3
13	CN(CC(=O)Nc1cccc(F)c1)C(=O)CNS(=O)(=O)c1ccc(N(C)C)c([N+](=O)[O-])c1
  -7.6	-13	-1.0%	-9	-12	0.2
14	Cc1ccc(Nc2cc(C)nc3ncnn23)c(Cl)c1
  -2.3	-8	-1.8%	-2	6	2.9
15	O=C(COc1ccc(Cl)cc1)Nc1ccc(NC(=O)c2ccco2)cc1
  0.1	-10	?	-4	-4	0.2
16	CN(Cc1ccccc1F)c1cc2c(c3c1ccn3C)C1CCC2C1 (stereo not given)
  -5.4	?	2.0%	-3	?	2.7
17	CCCCc1c(C)nn(-c2nnc3c4ccccc4n(C)c3n2)c1C
  -0.6	0	-0.6%	0	-1	0.7
18	O=C(Nn1c(Cc2cccs2)nc2ccccc2c1=O)c1ccc(F)c(F)c1
  -5.8	0	-2.2%	-1	-1	-0.3
19	COC(=O)Cc1ccc(NC(=O)c2ccc(C(C)(C)C)cc2)cc1
  -3.0	0	-3.8%	-7	22	5.6
20	Cc1cc(C)nc(SCC(=O)N/N=C\c2sccc2C)n1
  -2.5	-4	-3.6%[38.3 µM]	-6	-1	0.3
21	Cc1ccc(C(=O)NN(C)c2nc3ccccc3nc2C(F)(F)F)cc1
  -5.2	5	10%	-10	-1	0.3
22	COc1nccnc1NS(=O)(=O)c1ccc(NC(=S)NC(=O)c2cccc(F)c2)cc1
  -10	-6	0.6%	-5	-7	0.0
23	CN=C1SC(CC(=O)Nc2ccc(N3CCOCC3)cc2)C(=O)N1C (stereo not given)
  -3.5	2	4.3%[38.3 µM]	4	2	0.7
24	CCCc1ccc(-c2cc(C(=O)NN3CCOCC3)c3ccccc3n2)cc1
  -1.6	2	-1.7%[38.3 µM]	0	2	-0.1
25	CN(C)S(=O)(=O)c1cccc(NC(=O)Cc2ccc(-c3ccccc3)cc2)c1
  -0.9	0	0.0%	-21	-3	-0.4
26	CC(=O)COC(=O)CCc1nc2ccccc2[nH]c1=O
  -0.9	3	3.7%[38.3 µM]	-3	2	0.8
27	NC(=O)C1(N2CCCCC2)CCN(C(=S)Nc2ccc(S(N)(=O)=O)cc2)CC1
  -3.2	/	1.4%	-4	3	0.5
28	COc1ccccc1CNS(=O)(=O)c1ccc(-c2cc(C)no2)cc1
  1.6	/	0.7%	-8	1	0.8
29	COc1ccc(C2C(C#N)=C(N)Oc3n[nH]c(C)c32)cc1Cn1nc(C)c([N+](=O)[O-])c1C (stereo not given)
  -7.7	-9	8.7%	2	0	-1.2
30	O=C(NCc1cccnc1)c1cnc2sccn2c1=O
  -2.8	5	0.9%	-4	2	-0.4

# Some of the entries above in a different format:
(19) COC(=O)Cc1ccc(NC(=O)c2ccc(C(C)(C)C)cc2)cc1
(16) CN(Cc1ccccc1F)c1cc2c(c3c1ccn3C)C1CCC2C1 (stereo not given)
(21) Cc1ccc(C(=O)NN(C)c2nc3ccccc3nc2C(F)(F)F)cc1
(29) COc1ccc(C2C(C#N)=C(N)Oc3n[nH]c(C)c32)cc1Cn1nc(C)c([N+](=O)[O-])c1C (stereo not given)

screen / no.,19,16,21,29
D2 agonist,-3.0,-5.4,-5.2,-7.7
CtBP-E1A inh,0,?,5,-9
PINK1 modulator,-3.8%,2.0%,10%,8.7%
D2 potentiator,-7,-3,-10,2
Six1-Eya2 inh,22,?,-1,0
TRPML1 ag,5.6,2.7,0.3,-1.2

# (list continues)
# The line under a structure holds: D2 agonist	CtBP-E1A inh	PINK1 modulator	D2 potentiator	Six1-Eya2 inh	TRPML1 ag
31	O/N=C/c1ccnc(SCc2ccccc2)n1
  -3.7	6	0.7%	-10	-9	1.2
32	COC(=O)c1ccc(COc2cc([N+](=O)[O-])cc3cccnc23)o1
  2.4	-28	0.9%	4	?	0.8
33	CCOc1ccc(CCN2C(=S)N([C@@H](CC(C)C)CN3CCCC3CN3C(=S)NC[C@@H]3Cc3ccccc3)C[C@@H]2CC(C)C)cc1 (stereo not given in full)
  /	-1	6.4%	/	-8	-0.3
34	COC(=O)CN1C(=O)COc2ccc(S(=O)(=O)NCc3ccc(F)cc3)cc21
  -3.2	0	4.1%	6	8	0.2
35	CCOc1ccccc1NC(=O)N1CCCC1C(=O)Nc1ccc(NC(C)=O)cc1 (stereo not given)
  -3.9	1	-0.7%	5	0	0.0
36	COc1ccc(CC(=O)O/N=C(\N)Cc2ccc(OC)cc2)cc1
  -1.2	39	2.0%	-6	21	0.6
37	CCn1cc(C(=O)N[C@H](C(=O)NCCCN2CCOCC2)C(C)C)c(=O)c2cc3c(cc21)OCO3
  -3.7	-9	-0.8%	-14	-2	1.4
38	COc1ccccc1-n1c(O)c(C=NCc2ccccn2)c2ccccc2c1=O
  -1.7	-4	3.2%	-6	-4	1.4
39	Cc1cccc(NC(=O)c2cnn(-c3ccc(F)cc3)c2C2CCNCC2)c1C
  1.4	-12	0.3%	-3	-15	0.8
40	CCN(CC)CCNCc1ccc(Br)cc1OCC(=O)NCc1ccccc1
  1.8	/	0.8%	-24	11	0.5
41	CCc1ccc(/C=C2/Sc3ccccc3N(CC(=O)NCC3CCCO3)C2=O)cc1 (stereo not given)
  -1.0	-6	-0.3%	-2	-8	0.7
42	CC1Oc2ccccc2OC1C(=O)Nc1nccs1 (stereo not given)
  0.2	0	-0.4%	5	1	-0.7
43	Cc1cc(C(=O)OC(C)C(=O)Nc2nc(-c3ccccc3)cs2)c(C)o1 (stereo not given)
  -0.7	-10	/	3	-11	2.4
44	COc1cccc(OC)c1OCCCCCCN1CCN(C)CC1
  -7.6	/	0.6%	-10	5	1.0
45	O=C(O)CC(CC(=O)Nc1ccc(N2CCOCC2)cc1)c1ccccc1 (stereo not given)
  -8.8	1	0.9%	-4	7	0.7
46	O=C(NCC(=O)N1CCCCCCC1)c1ccc(Cl)cc1
  -3.4	/	1.1%	-3	-1	0.4
47	O=C(NC(=S)Nc1ccc(S(=O)(=O)N2CCCC2)cc1)C1CCC1
  -1.8	3	0.5%	-25	-8	0.0
48	Cc1ccc(S(=O)(=O)N2CCCCC2)cc1NC(=O)CN1C(=O)CN(C)C1=O
  -1.0	3	0.7%	1	2	-0.7
49	COc1cccc(CN2CCNC(=O)C2CC(=O)N(C)C2CCCCC2)c1OC (stereo not given)
  -1.1	3	-0.4%	-2	3	0.3
50	CCN(CC)C(=O)C(=O)c1cn(CCOc2ccccc2)c2ccccc12
  -4.9	-1	-0.6%	-9	-4	-0.3
51	CCOC(=O)N1CCc2[nH]c3ccc(C)cc3c2C1
  3.4	0	11%	-13	-14	0.9
52	COCCOc1cc(NCc2ccccc2)c2ncn(C(C)C)c2c1
  6.2	-26	-0.2%	-33	-15	-0.6
53	O=C(CCCC(=O)NN=Cc1ccccc1Cl)NN=Cc1ccccc1Cl
  -4.5	10	4.5%	-20	-26	4.8
54	Cc1nc2c(C)cccn2c1C(=O)N/N=C/c1ccccc1[N+](=O)[O-]
  0.7	0	5.0%	0	-1	0.7
55	Cc1cc2oc(=O)cc(CN3CCC(C)CC3)c2c(C)c1Cl
  -1.8	0	6.9%	-6	7	-0.1
56	CCCn1c(C)cc(-c2csc(N)n2)c1C
  -1.1	-8	1.5%	0	-6	0.2
57	Cc1oc(/N=C/c2ccccc2O)c(C#N)c1C
  -1.2	14	5.2%[38.3 µM]	-7	2	-0.4
58	CC1=CC(C)C(=O)N(C)C(C)=C1 (stereo not given)
  -7.2	0	1.9%	-6	4	-0.2
59	COC(=O)c1ccc(OCC(=O)c2ccccc2)cc1
  -3.0	-1	0.3%	5	-5	-0.1
60	O=C(C1CCN(c2ccc(N3CCOCC3)nn2)CC1)N1CCc2ccccc2C1
  -1.4	3	?	-10	2	0.8
61	CCCn1cnc2c(c1=O)c1nc3ccccc3nc1n2CCc1ccccc1
  1.2	6	16%[38.3 µM]	2	4	1.3
62	NNC(=O)C1CCCn2c1nc1sc3c(c1c2=O)CCCC3 (stereo not given)
  -0.5	-2	-0.3%	-4	1	-0.3
63	CC(C)CC(=O)N1CCN(Cc2ccccc2Br)CC1
  0.3	10	0.3%	-2	-1	-0.4
64	CN1CCN(C(=O)Cn2ncc3c([nH]c4ccccc43)c2=O)CC1
  -6.6	/	-0.7%	-7	4	0.7
65	COc1ccc(CNC(=O)C2CC(=O)N(c3ccc(OCC(=O)N4C(C)CCCC4C)cc3)C2)cc1 (stereo not given)
  -2.2	-7	1.6%	-7	-9	0.6
66	O=C(Cc1ccccc1)NS(=O)(=O)c1ccccc1
  -4.7	13	1.1%	-7	13	-0.5
67	CCCCSc1nc2ccccc2n1CC(=O)O
  0.7	-2	2.3%	-15	5	-1.3
68	Cc1cc(C(=O)Nc2ccccc2C(=O)O)ccc1NC(=O)COc1ccccc1Cl
  0.8	-4	6.5%	-2	-1	1.3
69	COC(=O)C1=C(C)NC(=O)NC1c1ccc(-c2ccc(Cl)cc2)o1 (stereo not given)
  -0.7	/	0.9%	-48	0	3.4
70	Cc1ccc(S(=O)(=O)N2CCCC2C(=O)NCc2ccccc2F)cc1 (stereo not given)
  5.5	10	-0.7%	-3	7	-0.5
71	CSc1nc2ccc(S(=O)(=O)Nc3c(C)n(C)n(-c4ccccc4)c3=O)cc2s1
  -1.9	-5	?	8	-13	0.0
72	COCCn1nnnc1CN(CCc1ccc(OC)c(OC)c1)Cc1cc2ccc(C)cc2[nH]c1=O
  -2.1	-4	0.5%	4	0	-0.5
